From PubChem BioAssay
Ecoli rRNA inh = reduced GFP signal of wild-type E. coli, primary screen, bacterial rRNA inhibitor project, GFP/RFP fluorescence, OD600, single point; E. coli WT GFP vs humanized-ribosome RFP mutants, 24 h; hits give low values; DMSO median 0, no signal -100; GFP signal change (wild-type ribosome), % (test concentration not listed); hit rate 1.6% among 350,000; AID 720706, 2013;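 active means significant combined selectivity score with lowered wild-type GFP, culture density cut under 30%, mutant RFP and density less affected; inactive means any of these conditions unmet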; further: one replicate is shown; some compounds called inactive have numbers as strong as hits
Ecoli rRNA inh OD600 = also measured in Ecoli rRNA inh; calls as there; OD600 change, %; measured here: OD600 growth;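 optical density of the mix in the first replicate; 0 = DMSO median and -100 = no signal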
Ecoli rRNA inh RFP = further read-out of Ecoli rRNA inh, marked with its call; RFP signal change, %; measured here: RFP humanized mutant strains;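 first replicate; 0 = DMSO median and -100 = no signal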
Starred values were filed as active, the others as inactive.

SMILES | Ecoli rRNA inh | Ecoli rRNA inh OD600 | Ecoli rRNA inh RFP
COc1ccc(NC(=O)Nc2ccc3c(c2)C(=O)N([C@H](C)CO)C[C@H](C)[C@H](CN(C)S(=O)(=O)c2c(C)noc2C)OCCCC[C@@H](C)O3)cc1 | 3 | 3 | -0.8
COC1=Nc2ccccc2N2CCN=C12 | 6 | 13 | 0.9
COCC(=O)N[C@@H]1CC[C@@H](CC(=O)NCc2ccc(Cl)cc2)O[C@H]1CO | 1 | -1 | -0.1
C[C@H]1CN([C@@H](C)CO)S(=O)(=O)c2ccc(-c3cccc(F)c3)cc2O[C@H]1CN(C)C(=O)c1cccc(F)c1 | -14 | -19 | 6.2
CCNC(=O)[C@@H]1[C@@H](CO)[C@@H]2Cn3c(ccc(-c4cccc(C(=O)N(C)C)c4)c3=O)[C@H]1N2 | 4 | 3 | -1.9
C[C@H]1CN([C@@H](C)CO)C(=O)c2cc(C3=CCCCC3)cnc2O[C@@H]1CN(C)C(=O)Cc1ccncc1 | -2 | 6 | 0.5
CCCNC(=O)Nc1ccc2c(c1)OC[C@@H](C)N(C(=O)C1CCC1)C[C@H](C)[C@H](OC)CN(C)C2=O | -2 | -2 | 0.4
C[C@@H]1CCCCO[C@H](CN(C)Cc2ccncc2)[C@@H](C)CN([C@H](C)CO)C(=O)c2cc(NC(=O)c3ccncc3)ccc2O1 | 3 | 12 | -1.2
O=C(C[C@@H]1C=C[C@H](NC(=O)Cc2ccccn2)[C@H](CO)O1)NCCc1ccncc1 | 2 | 9 | -0.1
CCOC(=O)[C@]12CCCC=C1N(Cc1ccc(Cl)cc1Cl)C(=O)[C@H](CC(=O)NCc1cccc(C(F)(F)F)c1)C2 | 6 | 17 | 0.5
C[C@H](CO)N1C[C@H](C)[C@@H](CN(C)Cc2ccc(-c3ccccc3)cc2)Oc2ccc(NC(=O)Cn3cnnn3)cc2CC1=O | -34 | -53 | 8.1
C[C@H](CO)N1C[C@H](C)[C@@H](CN(C)Cc2ccccc2)Oc2ccc(NC(=O)C3CC3)cc2C1=O | -1 | -2 | -0.1
C[C@H](CO)N1C[C@H](C)[C@@H](CN(C)C(=O)Nc2cccc3ccccc23)OCCCC[C@H](C)Oc2ccc(NC(=O)C3CCCCC3)cc2C1=O | 2 | 1 | -0.1
C[C@@H]1CN([C@H](C)CO)S(=O)(=O)c2ccc(-c3cncnc3)cc2O[C@@H]1CN(C)C | 5 | -2 | -0.6
CC(C)c1[nH]nc2c1C(c1ccccc1)N(c1ccccc1)C2=O (stereo unspecified) | 1 | 10 | 6.1

Overlap with the part before: 4 entries; new compounds follow.
SMILES | Ecoli rRNA inh | Ecoli rRNA inh OD600 | Ecoli rRNA inh RFP
C[C@H](CO)N1C[C@H](C)[C@@H](CN(C)Cc2ccccc2)Oc2ccc(NC(=O)C3CC3)cc2C1=O | -1 | -2 | -0.1
C[C@H](CO)N1C[C@H](C)[C@@H](CN(C)C(=O)Nc2cccc3ccccc23)OCCCC[C@H](C)Oc2ccc(NC(=O)C3CCCCC3)cc2C1=O | 2 | 1 | -0.1
C[C@@H]1CN([C@H](C)CO)S(=O)(=O)c2ccc(-c3cncnc3)cc2O[C@@H]1CN(C)C | 5 | -2 | -0.6
CC(C)c1[nH]nc2c1C(c1ccccc1)N(c1ccccc1)C2=O (stereo unspecified) | 1 | 10 | 6.1
COC(=O)[C@@H]1[C@@H](CO)[C@@H]2Cn3c(ccc(-c4ccccc4)c3=O)[C@@H]2N1Cc1ccccc1F | -7 | -9 | 1.6
CO[C@H](CN(C)C(=O)c1cnccn1)[C@H](C)CN([C@H](C)CO)S(=O)(=O)c1ccc(Cl)cc1 | 1 | -7 | -2.6
COc1ccccc1C(=O)Nc1ccnn1C1CCN(C2CCCCC2)CC1 | 13 | 19 | 2.1
COc1ccc2c3c([nH]c2c1)[C@H](CO)N(Cc1nccs1)CC31CN(Cc2ccncc2)C1 | -2 | 5 | -1.2
CO[C@@H]1CN(C)C(=O)c2cc(NS(=O)(=O)c3ccccc3)ccc2OC[C@@H](C)N(Cc2nccs2)C[C@@H]1C | -1 | -10 | 2.3
CNC[C@@H]1Oc2ccc(N(C)C)cc2CC(=O)N([C@H](C)CO)C[C@H]1C | 7 | 10 | 1.1
O=C(NCc1cc(F)cc(F)c1)[C@@H]1[C@@H](CO)[C@@H]2Cn3c(cccc3=O)[C@H]1N2C(=O)Cc1ccccn1 | 2 | 3 | -0.4
CCCC#Cc1cnc2c(c1)C(=O)N([C@@H](C)CO)C[C@@H](C)[C@H](CN(C)CCC)O2 | 7 | 4 | -1.1
COc1ccc(C#Cc2ccc3c(c2)O[C@H](CN(C)C)[C@H](C)CN([C@H](C)CO)S3(=O)=O)cc1 | 6 | 5 | 1.2
CC(C)NC(=O)N(C)C[C@@H]1Oc2ccc(NC(=O)Cn3cnnn3)cc2CC(=O)N([C@H](C)CO)C[C@@H]1C | 3 | 2 | -4.2
C[C@H]1CCCCO[C@H](CN(C)S(=O)(=O)c2cn(C)cn2)[C@@H](C)CN([C@@H](C)CO)C(=O)c2cc(NC(=O)Nc3ccc(C(F)(F)F)cc3)ccc2O1 | 0 | 2 | -0.7
C[C@H]1CCCCO[C@H](CN(C)S(=O)(=O)c2ccc(F)cc2)[C@@H](C)CN([C@@H](C)CO)C(=O)c2cc(NC(=O)Nc3ccc(F)cc3)ccc2O1 | 2 | 16 | 3.4
CC(C)Oc1ccc(S(=O)(=O)N2CCOCC2)cc1NC(=O)c1ccc(Cl)c(S(=O)(=O)N2CCOCC2)c1 | 1 | 12 | 2.2
COc1ccc(NC(=O)N(C)C[C@@H]2Oc3ccc(N(C)C)cc3CC(=O)N([C@H](C)CO)C[C@@H]2C)cc1 | 2 | 11 | -2.0
C[C@@H]1CN([C@H](C)CO)C(=O)c2cc(C#CC3CC3)cnc2O[C@H]1CN(C)C(=O)c1ccccc1 | -4 | -2 | 0.2
CO[C@@H]1CN(C)C(=O)c2ccc(NC(=O)c3ccc(F)cc3)cc2OC[C@@H](C)N(C(=O)CC2CC2)C[C@@H]1C | -2 | 2 | 0.4
Cc1ccc(S(=O)(=O)Nc2cccc3c2O[C@@H](CN(C)Cc2ccc(-c4ccccc4)cc2)[C@@H](C)CN([C@@H](C)CO)C3=O)cc1 | -2 | 4 | -2.2
CCC(=O)N[C@@H]1CC[C@H](CC(=O)NCC2CCCCC2)O[C@H]1CO | -1 | 6 | -0.4
O=C(C[C@@H]1C=C[C@H](NC(=O)Nc2cc(F)ccc2F)[C@@H](CO)O1)NCc1ccc2c(c1)OCO2 | 0 | -1 | 0.4
COc1ccc(CN(C)C[C@H]2Oc3ccc(NS(=O)(=O)c4ccccc4)cc3CC(=O)N([C@@H](C)CO)C[C@@H]2C)cc1 | -1 | -19 | 5.8
Cc1noc(C)c1NC(=O)N[C@H]1C=C[C@H](CC(=O)N2CCCCC2)O[C@@H]1CO | 2 | 1 | -2.8
Cc1ccc(S(=O)(=O)N(C)C[C@H]2OCCCC[C@H](C)Oc3ccc(NC(=O)NC4CCCCC4)cc3C(=O)N([C@H](C)CO)C[C@H]2C)cc1 | -3 | -3 | -5.5
CN1C(=O)c2cc(NC(=O)c3ccccc3)ccc2OC[C@H]2O[C@@H](CC(=O)NCC3CC3)CC[C@@H]21 | -2 | -2 | -0.2
C[C@H]1CN([C@@H](C)CO)C(=O)Cc2cc(N(C)C)ccc2O[C@@H]1CN(C)C(=O)Nc1cccc2ccccc12 | 0 | 6 | -0.9
CO[C@H]1CN(C)C(=O)c2cc(NC(=O)NC(C)C)ccc2OC[C@@H](C)NC[C@H]1C | 0 | -4 | -3.0
CCCNC(=O)N1C[C@H](C)[C@@H](OC)CN(C)C(=O)c2cc(NC(C)=O)ccc2OC[C@@H]1C | 2 | 6 | -0.8
CC(C)NC(=O)Nc1ccc2c(c1)C(=O)N([C@H](C)CO)C[C@H](C)[C@@H](CN(C)C(=O)Nc1ccccc1)OCCCC[C@H](C)O2 | -4 | 5 | -1.0
O=C(C[C@H]1C=C[C@@H](NC(=O)C2CCOCC2)[C@@H](CO)O1)NCC1CC1 | 1 | 7 | -3.0
C[C@H]1CN([C@@H](C)CO)S(=O)(=O)c2ccc(-c3ccccc3)cc2O[C@@H]1CN(C)C(=O)C1CCCCC1 | -8 | -22 | 5.1
C[C@@H]1CCCCO[C@H](CN(C)C(=O)CCCN(C)C)[C@@H](C)CN([C@H](C)CO)C(=O)c2cc(NS(=O)(=O)c3ccccc3)ccc2O1 | 1 | -1 | 0.0
O=C(N[C@@H]1C=C[C@H](CC(=O)N2CCC(Cc3ccccc3)CC2)O[C@@H]1CO)c1cnccn1 | -2 | -6 | -1.3
C[C@H](CO)N1C[C@H](C)[C@H](CN(C)CC2CCCCC2)Oc2ccc(NC(=O)Nc3ccccc3)cc2C1=O | 3 | 2 | 1.0
O=C(c1cccc(F)c1)N1CC2(C1)[C@H](c1ccccc1)[C@H](CO)N2Cc1ccccn1 | 2 | -2 | -1.0
CCCC(=O)Nc1ccc2c(c1)OC[C@@H](C)N(CC1CCOCC1)C[C@@H](C)[C@H](OC)CN(C)C2=O | 1 | 0 | -1.0
CCOC(=O)C1(C#N)C(=O)CSC1=Nc1ccccc1Cl (stereo unspecified) | 10 | 13 | 44
CCCc1ccc(C(O)c2ncc(-c3cccc(C)c3)[nH]2)cc1 (stereo unspecified) | -61 | -77 | -17
CCCNC(=O)Nc1ccc2c(c1)C(=O)N(C)[C@H]1CC[C@H](CC(=O)Nc3cccc(F)c3)O[C@@H]1CO2 | -6 | -7 | 0.9
Cc1ccc(NC(=O)NC(=O)COC(=O)c2ccc(O)cc2O)c(C)c1 | -9 | -36 | 4.9
COc1ccc(-c2ccc3c(c2)[C@@H]2[C@@H](CCN2C(=O)c2ccc(F)cc2)[C@H](CO)N3C)cc1 | -1 | -16 | 13
COC(=O)[C@@H]1[C@@H](CO)[C@@H]2Cn3c(ccc(C4=CCCC4)c3=O)[C@@H]2N1C(=O)Cc1cccnc1 | 2 | 21 | 2.2
COc1cc(CNC(=O)c2cc(-c3ccc(OC)cc3C)n[nH]2)cc(OC)c1 | -2 | -20 | -7.4
COc1ccccc1CNC(=O)C1(C)CCN1Cc1ccc(OC(F)(F)F)cc1 (stereo unspecified) | -4 | -60 | 9.2
CC(=O)N(C)C[C@@H]1Oc2ncc(-c3cccc(F)c3)cc2C(=O)N([C@H](C)CO)C[C@H]1C | 2 | 1 | 0.0
C[C@@H]1CN([C@H](C)CO)C(=O)c2cc(NC(=O)CCC(F)(F)F)ccc2O[C@@H]1CN(C)C | 1 | 6 | 1.2
Clc1ccc2nc3ccccc3cc2c1 | 1 | 3 | -3.0

Ordered by number of heavy atoms (highest first): part of the list above.
SMILES | Ecoli rRNA inh | Ecoli rRNA inh OD600 | Ecoli rRNA inh RFP
CCCNC(=O)Nc1ccc2c(c1)C(=O)N(C)[C@H]1CC[C@H](CC(=O)Nc3cccc(F)c3)O[C@@H]1CO2 | -6 | -7 | 0.9
O=C(c1cccc(F)c1)N1CC2(C1)[C@H](c1ccccc1)[C@H](CO)N2Cc1ccccn1 | 2 | -2 | -1.0
COc1cc(CNC(=O)c2cc(-c3ccc(OC)cc3C)n[nH]2)cc(OC)c1 | -2 | -20 | -7.4

Later entries:
SMILES | Ecoli rRNA inh | Ecoli rRNA inh OD600 | Ecoli rRNA inh RFP
COCC(=O)N1CC(=O)N2[C@H](C1)[C@@H](c1ccc(Br)cc1)[C@@H]2CO | 1 | 11 | -1.4
CCOC(=O)C1=CCN(S(=O)(=O)c2ccc(Cl)cc2)C1c1cccc(C)c1 (stereo unspecified) | -28 | -30 | -7.5
C=Cc1ccc(Cn2c(C)c(C(=O)NCc3ccc4c(c3)OCO4)sc2=O)cc1 | -9 | -15 | -5.1
CCCC#Cc1ccc2c(c1)O[C@H](CN(C)S(C)(=O)=O)[C@@H](C)CN([C@@H](C)CO)S2(=O)=O | -2 | -7 | 0.8
CO[C@H]1CN(C)C(=O)c2cc(NS(C)(=O)=O)ccc2OC[C@H](C)N(C(=O)C2CCOCC2)C[C@H]1C | 4 | 8 | -2.6
CCCCn1nnnc1C1(C)CCC(=O)N1Cc1ccc(F)cc1 (stereo unspecified) | 5 | 11 | 2.4
Cc1ccc(Cc2c(-c3ccc(C)cc3)nc3c4ccccc4ccn23)cc1 | 16 | 17 | 6.6
Cc1ccc(C)c(N2CCN(C(C(=O)NC3CCCC3)c3ccco3)CC2)c1 (stereo unspecified) | -30 | -70 | 3.7
O=C(C1CCCCC1)N1CC(=O)N2[C@H](CO)[C@H](c3ccc(C#CCc4ccccc4)cc3)[C@@H]2C1 | 2 | -5 | 9.2
C[C@@H]1CN([C@@H](C)CO)C(=O)c2cc(NC(=O)CCCCCC(=O)Nc3ccccc3N)ccc2O[C@H]1CN(C)CC1CCCCC1 | -1 | -2 | 0.2
CN1CCN(C(=O)C[C@H]2CC[C@H](NC(=O)c3ccc4c(c3)OCO4)[C@H](CO)O2)CC1 | 0 | 6 | -1.6
CCc1nc2c(OCC(=O)c3ccc(Cl)cc3Cl)cccn2c1N(C=O)Cc1ccccc1 | -3 | -3 | -1.4
CCCNC(=O)N(C)C[C@@H]1Oc2cc(-c3ccc(C)cc3)ccc2S(=O)(=O)N([C@H](C)CO)C[C@H]1C | -1 | -19 | 1.4
COc1ccc(NC(=O)Nc2ccc3c(c2)C(=O)N([C@H](C)CO)C[C@H](C)[C@H](CN(C)S(=O)(=O)c2ccc(Cl)cc2)O3)cc1 | -1 | -7 | 1.1
CCNC(=O)[C@@H]1[C@@H](CO)[C@@H]2Cn3c(ccc(-c4cncnc4)c3=O)[C@@H]2N1C(=O)c1ccccc1F | 3 | 4 | 0.6
C[C@H](CO)N1C[C@H](C)[C@H](CN(C)C(=O)NC2CCCCC2)Oc2ccc(NC(=O)CCCCCC(=O)Nc3ccccc3N)cc2C1=O | -1 | 2 | -1.2

A portion of the library. The share of hits here may be higher or lower than overall.
